# Tgondii IFNg: T. gondii growth inhibition with IFN-gamma, primary screen, cell-based; Toxoplasma gondii growth in IFN-gamma-treated host cells; active compounds read low; reference of the scale not given here; actives 3.8% (n = 69,000); activity change, negative = inhibition, %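 (about 20 µM by stock and volumes)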; AID 1259416, 2018;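 active means below -70%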;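 further: host cells are HeLa cells infected with Toxoplasma gondii; parasite growth read as luciferase light; one replicate is shown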
# The depositor's hits bear a star; i = inactive; & = joins results of further samples.
SMILES,Tgondii IFNg
C[C@@H]1CN([C@H](C)CO)C(=O)Cc2cc(NS(=O)(=O)c3cn(C)cn3)ccc2O[C@@H]1CN(C)Cc1ccc2c(c1)OCO2,-3
NC(=O)C1CCN(C(=O)C2CC=CCC2C(=O)O)CC1 (stereo not drawn),-36
COc1c(C(=O)O)c(=O)[nH]c2c(OC)cccc12,-8
CO[C@@H]1CN(C)C(=O)c2cc(NC(=O)Cc3ccccc3)ccc2OC[C@H](C)N(C(=O)c2ccccc2F)C[C@@H]1C,51
O=c1nc(N2CCCCC2)ccn1-c1nc(-c2ccccc2)sc1-c1ccccc1,-32
Cc1c(Cl)cccc1NC(=O)CN1CCC2(CC1)N=C(c1ccc(F)cc1)C(=O)N2,46
Clc1ncnc2sc(-c3ccccc3)cc12,62
Cc1ccc(Nc2cc(C)nc3c(C)cccc23)cc1,-59
Cc1ccc(NCc2ccc3[nH]c(-c4ccc(F)cc4)c(C)c3c2)nn1,32
O=C(CCCn1cnc2ccccc2c1=O)N1CCCCC1CCO (stereo not drawn),-5
O=C(NCCc1cccnc1)c1ccn(-c2ccc3ccc(-c4cccc(F)c4)cn23)n1,-20
C=CCN1CC(C(=O)Nc2cccc(C(=O)NC(C)(C)C)c2C)CCC1=O (stereo not drawn),0
O=C(c1cc(C2CCCN(c3ncccn3)C2)[nH]n1)N1CCOCC1 (stereo not drawn),13
FCCN1CCc2nc(-c3cccc(F)c3)nc(NC3CC3)c2C1,-4
CC=Cc1ccc2n(c1=O)C[C@H]1[C@H](CO)[C@@H](C(=O)Nc3nccs3)N(Cc3cc(F)ccc3F)[C@@H]21 (mixture of isomers),5
CN(C)C(=O)c1ccc(-c2cccc(-c3nc(C(=O)NCc4ccccc4)cc4c3[C@H](CCO)N([S@@](=O)C(C)(C)C)C4)c2)cc1,-54
Cc1cccc(S(=O)(=O)N2C[C@H]3C[C@H](C(=O)NC(C)C)[C@@H](C2)O3)c1,2
C[C@H]1CN([C@@H](C)CO)C(=O)c2cc(N(C)C)ccc2O[C@@H]1CN(C)Cc1ccc(Oc2ccccc2)cc1,65
O=S(=O)(NCCCCCCc1ccccc1)c1cccc2c(Cl)cccc12,12&19
CC(C)(C)CN1CC2CN(C(=O)Nc3ccccc3)CC2C1 (stereo not drawn),i
C[C@@H]1CN([C@H](C)CO)C(=O)CCCn2cc(nn2)CO[C@@H]1CN(C)C(=O)Nc1cccc2ccccc12,i
CCOc1ccc(C(=O)N2CCC3(CC2)Nc2cc(F)ccc2-n2cccc23)cc1,57
COc1ccc2c3c(n(C)c2c1)[C@@H](CO)NCC31CCN(CC2CCCCC2)CC1,-66
O=S(=O)(NCc1ccccc1)NC[C@H]1CCc2ccccc2O1,3
COc1ccc(CNS(=O)(=O)c2cc3c4c(c2)CCC(=O)N4CCC3)cc1,2
CC(NC(=O)CCc1ccc2c(ccn2C)c1)c1cccnc1 (stereo not drawn),57
CCOCC(=O)N1CCC2(CCC(=O)N(C)CC2)CC1,-1
O=C(CN(Cc1ccco1)C(=O)CCn1ncc2ccccc21)NC1CCCC1,8
CCOC(=O)C1CCCN(Cc2nnc(-c3ccccc3)o2)C1 (stereo not drawn),85
O=S(=O)(NCc1ccccc1)N1CCCCC1CCn1cccn1 (stereo not drawn),7
Clc1ccc(NCn2nnc3ccccc32)cc1,90
Cc1oc(-c2ccc(NC(=O)c3ccccc3F)cc2)nc1Cn1cccn1,-59
O=C1NCCN1CCN1CCC(c2cn(-c3ccc(F)cc3)c3ccc(Cl)cc23)CC1,-40
CC/C=C\C/C=C\C/C=C\C/C=C\C/C=C\CCCC(=O)O,8
Cc1cnc(N2CCC3(CC(N(C)Cc4ccccn4)CO3)C2)nc1 (stereo not drawn),11
CS(=O)(=O)N1C2CCC1CN(c1ncccn1)C2,-25
Cc1ccc(C2=NC3(CCN(Cc4ccccc4Cl)CC3)NC2=O)cc1C,50
COCCN1CCN(C(=O)[C@H]2CCCO2)Cc2cccnc21,44
Cc1nc(-c2ccc(Cl)cc2)sc1CCNC(=O)COc1ccccc1,44
CCn1nc(C(C)C)cc1C(=O)NCc1nonc1C,-1
Cc1nc(-c2cccc(F)c2)sc1CCNC(=O)c1ccccc1C(F)(F)F,19
CO[C@H]1CN(C)C(=O)c2cc(NC(C)=O)ccc2OC[C@H](C)N(S(C)(=O)=O)C[C@H]1C,70
CC1CCN(C(=O)c2nc(-c3cccc(F)c3)n3c2CCCCC3)CC1,-59
COc1ccc(-c2[nH]nc3c2C(C(=O)c2ccc(C)s2)CC(=O)N3)cc1OC (stereo not drawn),-4
CCSCC(C)NC1CCN(S(C)(=O)=O)CC1 (stereo not drawn),-6
CN(C)CCN(Cc1ccccc1)c1ccccn1,-2&12&-8
COCCSc1nnc(NS(=O)(=O)Cc2ccccc2)s1,-43
Cc1ccc(S(=O)(=O)Nc2ccc3c(c2)CC(=O)N([C@@H](C)CO)C[C@@H](C)[C@H](CN(C)S(=O)(=O)c2ccccc2)O3)cc1,-47
CSc1nnc(C2CCN(CC(=O)NCc3ccc(C)cc3)CC2)n1C,-61
CC(=O)N1CCCC(c2cncc(Oc3cccnc3)n2)C1 (stereo not drawn),-8
CCCC(=O)Nc1ccc2c(c1)C(=O)N(C)C[C@H](OC)[C@@H](C)CN(C(=O)c1ccccn1)[C@H](C)CO2,172
CS(=O)(=O)N1C[C@H]2COC[C@@H](CC(=O)N3CCCC3)[C@H]2C1,-44
O=C(c1ccc(NCC2CCOC2)nc1)N1CCC(CCc2ccccc2)CC1 (stereo not drawn),-22
CCC(=O)N1[C@@H](CO)[C@H](c2ccccc2)C12CN(C(=O)c1ccc3c(c1)OCO3)C2,-57
Cc1noc(C)c1S(=O)(=O)N(C)C[C@@H]1OCCCC[C@@H](C)Oc2ccc(N(C)C)cc2C(=O)N([C@@H](C)CO)C[C@H]1C,i
COc1ccccc1N(Cc1nc(-c2cccc(C)c2)oc1C)S(=O)(=O)c1ccccc1,-45
COc1ccccc1NC(=O)c1ccc2nsnc2c1,70
CCN1[C@@H]2CCN(C(=O)Nc3ccccc3Cl)CC[C@@H]2Oc2ccccc2S1(=O)=O,-11
O=S(=O)(NC1CC2(CCN(Cc3cccc(F)c3F)C2)C1)C1CC1 (stereo not drawn),-41
CC(=O)N1C[C@@H]2C3(CCN(C(=O)Nc4ccccc4)CC3)CC[C@]2(C(=O)N2CCCC2)C1,24

# Continued.
SMILES,Tgondii IFNg
OC[C@@H]1[C@@H](c2ccccc2)C2(CN(Cc3ccccn3)C2)N1Cc1cncnc1,41
CCc1nnsc1C(=O)N1CCCC1c1c(C)noc1C (stereo not drawn),-43
CCN(CC)c1ncnc2c1cnn2CC(=O)NCc1ccc(C(F)(F)F)cc1,56
Cc1nc([C@H]2C[C@@H]3CCN(Cc4ccoc4)C[C@@H]3O2)sc1C,-5
COc1cc(F)ccc1-c1c(-c2ccccc2)ncn1CCc1cnc[nH]1,8
C=CCNc1ccccc1C(=O)N1CCN(CC(=O)NC(C)C)CC1,6
O=C(/C=C/c1ccccc1)c1ccc(O[C@@H]2O[C@H](CO)[C@@H](O)[C@H](O)[C@H]2O)cc1O,16
COC(=O)c1cccc(CN2CC[C@@H](c3ccc(F)cc3)[C@H](O)C2)n1,1
CCOc1ccc(CCNC(=O)c2c(O)c3ccccc3[nH]c2=O)cc1OCC,162
CCc1nc(C)cc(N2CCN(C(=O)C(c3ccc(F)cc3)N(C)C)CC2)n1 (stereo not drawn),1
COc1ccccc1NC(=O)N1C[C@H](O)COC[C@@H]2O[C@H](CC(=O)NCCc3ccncc3)CC[C@H]21,36
O=C(Nc1ccccc1F)c1cc2c(s1)CCN2C(=O)C1CC1,i

# Arranged by heavy-atom count (high to low): some entries from above
SMILES,Tgondii IFNg
C[C@@H]1CN([C@H](C)CO)C(=O)CCCn2cc(nn2)CO[C@@H]1CN(C)C(=O)Nc1cccc2ccccc12,i
CCCC(=O)Nc1ccc2c(c1)C(=O)N(C)C[C@H](OC)[C@@H](C)CN(C(=O)c1ccccn1)[C@H](C)CO2,172
O=C(NCCc1cccnc1)c1ccn(-c2ccc3ccc(-c4cccc(F)c4)cn23)n1,-20
CCN1[C@@H]2CCN(C(=O)Nc3ccccc3Cl)CC[C@@H]2Oc2ccccc2S1(=O)=O,-11
O=C(CN(Cc1ccco1)C(=O)CCn1ncc2ccccc21)NC1CCCC1,8
Cc1nc(-c2cccc(F)c2)sc1CCNC(=O)c1ccccc1C(F)(F)F,19
COc1cc(F)ccc1-c1c(-c2ccccc2)ncn1CCc1cnc[nH]1,8
CC1CCN(C(=O)c2nc(-c3cccc(F)c3)n3c2CCCCC3)CC1,-59
O=S(=O)(NC1CC2(CCN(Cc3cccc(F)c3F)C2)C1)C1CC1 (stereo not drawn),-41
O=S(=O)(NCc1ccccc1)NC[C@H]1CCc2ccccc2O1,3
CC(=O)N1CCCC(c2cncc(Oc3cccnc3)n2)C1 (stereo not drawn),-8
CCc1nnsc1C(=O)N1CCCC1c1c(C)noc1C (stereo not drawn),-43
COc1ccccc1NC(=O)c1ccc2nsnc2c1,70
CN(C)CCN(Cc1ccccc1)c1ccccn1,-2&12&-8
CS(=O)(=O)N1C2CCC1CN(c1ncccn1)C2,-25
CCSCC(C)NC1CCN(S(C)(=O)=O)CC1 (stereo not drawn),-6
Clc1ncnc2sc(-c3ccccc3)cc12,62

# (list continues)
SMILES,Tgondii IFNg
C/C=C/c1ccc2c(c1)O[C@H](CN(C)C(=O)Nc1ccc(OC)cc1)[C@@H](C)CN([C@H](C)CO)S2(=O)=O,113
COCCN1CCO[C@@H]2CN(Cc3ccccc3F)C[C@@H]2C1,-4
COc1ccc(Cc2nnc(SCC(=O)Nc3cccc(C(C)=O)c3)o2)cc1OC,90
CCCCc1ccc(NC(=O)c2cc(OC)c(OC)c(OC)c2)cc1,-43
Cc1csc(SCCCCCCC(=O)O)n1,19
CC(CNCC(=O)Nc1cnccn1)Oc1cccnc1 (stereo not drawn),0
COCC1CN(C(=O)c2ccc3c(c2)OCO3)Cc2ccnn2C1 (stereo not drawn),-45
CCCn1ccnc1CN1CCN(S(=O)(=O)c2ccccc2)CC1,-4
Cc1cccc(C(C(=O)NCCn2ccnc2)N(C)C)c1 (stereo not drawn),3
CC(C)N1CCc2[nH]nc(C(=O)N3CCOCC3)c2C1,-7
CN(C)C(=O)[C@@H]1CCO[C@@H]2CCN(Cc3cnn(C)c3)C[C@H]21,-6
CCCN1[C@@H]2c3ccc(-c4ccccc4)c(=O)n3C[C@H]1[C@H](CO)[C@H]2C(=O)NCC,-6
CC(C)c1nn(-c2ccccc2)c2c1C(c1ccoc1)CC(=O)N2 (stereo not drawn),-28
c1ccc(-c2ccc3c(C4CCCN4Cc4ccncc4)nnn3c2)cc1 (stereo not drawn),61
CC(C)(C)c1nc(CN2CCc3onc(-c4ccc5c(c4)OCO5)c3C2)no1,-40
CC(=O)O/N=C1/C(=O)N(Cc2cc(Cl)ccc2Cl)c2ccc(Cl)cc21,-79*
CCC(CC)n1ncc(C)c1NC(=O)Cc1ccc(-n2nnnc2C)cc1,-27
COC(=O)c1cc2n(n1)CCCN(C(=O)Cc1cn3ccsc3n1)C2,-6
COC1CC2(CCN(S(=O)(=O)c3cn(C)cn3)CC2)C1,-27
Cc1noc(C)c1C(=O)Oc1ccccc1,-14
COc1ccc(CCN2CNc3c(c(=O)n(C)c(=O)n3C)C2)cc1OC,15
COc1ccc(-c2nc3c(s2)CN(C(=O)Nc2ccc(C)cc2Cl)CC3)cc1,79
CC(C)c1nccn1C(C)c1ccccc1-n1cccn1 (stereo not drawn),2
CN1C(=O)CCc2cc(C(=O)NCc3cccnc3)ccc21,127
CN(c1ncccn1)C1COC2(CCN(C(=O)c3ccc[nH]3)C2)C1 (stereo not drawn),1
O=C(NCC(c1ccncc1)N1CCOCC1)c1cccc(-n2cccn2)c1 (stereo not drawn),23
COc1cccc(S(=O)(=O)N2CCC(c3nc(C(=O)N4CCCC4)c(C)o3)CC2)c1,58
Cc1ccsc1C(=O)N1CC[C@H]2[C@@H]1CCN2CC1CCOCC1,-9
CCN1CCC2(CC1)CC(NCc1nccn1C)c1ccccc12 (stereo not drawn),-3
CN1CCn2c(-c3ccccc3)cnc2C12CCN(C(=O)c1cscn1)CC2,-37
Cc1oc2ccccc2c1CCOC(=O)c1ccc(Cl)cc1,31
CC(NC(=O)C12CC3CC(CC(O)(C3)C1)C2)c1ccc2c(c1)CCCO2 (stereo not drawn),-7
CN1CC2(CCN(C(=O)CN3CCc4ccccc4C3)C2)OC1=O (stereo not drawn),-5
COc1cccc(C(=O)Nc2ccc3c(c2)C(=O)N(C)[C@@H]2CC[C@@H](CC(=O)N[C@H](C)c4ccccc4)O[C@H]2CO3)c1,14
Cc1cccc(CS(=O)(=O)N2C[C@@H](c3cccnc3)[C@@]3(CCCC(=O)N3)C2)c1,15
Cc1ccc(NC(=O)C(=O)NCCc2csc(-c3ccc(F)cc3)n2)cc1F,-26
O=C(Nc1cnn(-c2ncc(N3CCSCC3)cn2)c1)NC1CCCC1,-1
O=C(c1cccs1)N1CCC(c2nc(-c3ccccn3)ncc2-c2ccncc2)CC1,29
O=C(Cn1c(=O)cc(C(=O)N2CCc3ccccc3C2)c2ccccc21)Nc1ccccc1,-3
CCC(=O)N1CC2(CN(C(C)=O)C2)c2c([nH]c3cc(OC)ccc23)[C@H]1CO,28
O=C(NC1CC1)c1ccnc(-c2ccc3c(c2)OCO3)c1,-49
COc1cccc(-c2ccc3c(c2)[C@@H]2[C@@H](CCN2S(=O)(=O)c2ccccc2F)[C@H](CO)N3)c1,-59
CNC[C@H]1OCCCC[C@@H](C)Oc2ccc(NS(=O)(=O)c3ccc(F)cc3)cc2C(=O)N([C@H](C)CO)C[C@@H]1C,5
CS(=O)(=O)c1ccc(-c2cc(Br)sc2-c2ccc(F)cc2)cc1,-26&5

# The list is partial (hit frequency here may not be typical).
